# Source: PubChem BioAssay (National Center for Advancing Translational Sciences (NCATS))
# HPGD block: inhibitors of human 15-hydroxyprostaglandin dehydrogenase (HPGD) | AID 894 | 150,000 compounds, 4.3% hits | purified HPGD, NADH fluorescence kinetic, PGE2 substrate | Potency, µM, inactives show at the top dose activity change, negative = inhibition, usual class: inhibitors; active = well fitted inhibition curve with a large enough effect (not every such curve was filed as active); inconclusive = small, poorly fitted or top-dose-only effect, or another doubt; inactive = no such curve, though single readings can be large or run the other way;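 also: top concentration of the series not given in the record; plate controls included wells without enzyme; inactives centre near -10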
# Target sequence (P15428 whole entry, looked up): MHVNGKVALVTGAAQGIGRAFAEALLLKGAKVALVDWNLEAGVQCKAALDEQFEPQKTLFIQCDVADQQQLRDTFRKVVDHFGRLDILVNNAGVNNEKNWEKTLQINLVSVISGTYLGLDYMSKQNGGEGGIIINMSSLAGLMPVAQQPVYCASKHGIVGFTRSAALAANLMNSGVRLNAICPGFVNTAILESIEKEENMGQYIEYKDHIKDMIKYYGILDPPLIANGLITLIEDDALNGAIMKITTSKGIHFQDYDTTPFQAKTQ
#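 20 nM HPGD preincubated 15 min at room temperature with compound in 50 mM Tris-HCl pH 8, 0.01% Tween 20. Started with 1 mM NAD+ and 30 uM prostaglandin E2; NADH fluorescence (360/450 nm) read 5 times over 30-s intervals, last minus first.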
# * hit, by the source's call; ? = inconclusive; & = joins results of further samples. % is scaled to controls: 0 for no effect and ±100 for the full control effect; potency is read from the fitted curve at half-maximal effect.
SMILES,HPGD block
S=C(NCc1ccccc1)Nc1cccc(Cl)c1,14µM*
OCCCNCc1ccncc1,-6%
O=[N+]([O-])c1cc(-n2cnnn2)ccc1N1CCC(Cc2ccccc2)CC1,-14%
Cc1c(NC(=O)c2cc(C(C)C)on2)c(=O)n(-c2ccccc2)n1C,0%
Cc1ccc(CNc2ccc3nnc(-c4ccccc4)n3n2)cc1,-3%
Cc1nnc(SCC(=O)Nc2nsc(-c3ccc(C(C)(C)C)cc3)n2)s1,-12%
CC(=O)NC(CCS(C)(=O)=O)C(=O)Nc1ccccc1 (stereo unspecified),-3%
COc1cccc(Cn2c(=O)c(-c3cccs3)nc3cnc(N4CCN(C)CC4)nc32)c1,-10%
COc1ccc2nc(/N=C(\N)NC(=O)C(C)(C)C)nc(C)c2c1,?
CC(C)C(OC(=O)c1ccco1)C(=O)NC1CCCCC1 (stereo unspecified),-3%
COc1ccccc1NC(=O)CSc1nccc(=O)[nH]1,-5%
O=C(CSC(=S)N1CCOCC1)c1ccccc1,-26%
CC[n+]1c(P(=O)([O-])c2ccccc2)[nH]c2ccccc21,2%
CC1CCN(C(=O)CCc2ccc(S(=O)(=O)NC(C)C)cc2)CC1,-12%
COC(=O)c1ccc(N2C(=O)CC(N3CCC(O)(c4ccc(Br)cc4)CC3)C2=O)cc1 (stereo unspecified),-9%
O=[N+]([O-])c1ccc(F)c(N=Cc2ccc(Br)s2)c1,-10%
Cc1cc(C)c(COCc2cc(/C=N/O)c(C)cc2C)cc1/C=N/O,14µM*
N#C/C(=C(/O)Cc1cccc2ccccc12)c1nc2ccccc2s1,-8%
CCS(=O)(=O)c1nc(NC(C)=O)n[nH]1,-8%
CC(C)(C)C1C/C(=C/c2ccco2)C(=O)/C(=C/c2ccco2)C1 (stereo unspecified),-8%
c1ccc(Cn2nnnc2C(c2ccccn2)N2CCN(c3ccccc3)CC2)cc1 (stereo unspecified),2%
C/C(Nc1ccc(F)cc1)=C(/C#N)C(N)=O,-12%
Cc1ccc(-c2csc(N(Cc3ccccc3)C(=O)COc3ccccc3)n2)cc1,-3%
O=C(CCCNS(=O)(=O)c1ccc(Br)cc1)N1CC[C@@]2(O)CCCC[C@H]2C1,-8%
Cc1cc2c3c(c1C)C1(C(=O)N3C(C)(C)CC2C)C(C#N)=C(N)Oc2cc(O)ccc21 (stereo unspecified),-2%
CCOc1cccc(NC(=O)Cc2cccs2)c1,-15%
O=C(O)CCc1ccc(-c2ccccc2)n1NC(=O)c1ccco1,-11%
COc1cc(/C=C2/SC(=S)N(CC3CCCO3)C2=O)ccc1O (stereo unspecified),25µM*
Cc1cc(C)n(-c2nc3c(c(=O)[nH]c(=O)n3C)n2Cc2ccc(F)cc2)n1,-9%
O=C(Oc1ccc(-c2cnc3ccccc3n2)cc1)c1ccco1,-12%

# More compounds follow:
SMILES,HPGD block
CCCN(CCC)C(=O)C1CC(=O)OC12CCOC(C)(C)C2 (stereo unspecified),-11%
CCCC1=C(C(=O)OCC)C(c2c(C)nn(-c3ccccc3)c2Cl)C(C#N)=C(N)O1 (stereo unspecified),?
Cc1ccc(Nc2nc(N)nc(CSc3ncccn3)n2)cc1,-5%
CC1(C)CC[C@]2(C(=O)O)CC[C@]3(C)C(=CCC4[C@@]5(C)CC[C@H](O)C(C)(C)C5[C@H](O)C[C@]43C)C2C1 (stereo partly specified),-3%
COc1ccccc1/C=C/C=N/NC(=O)Cc1cccs1,-17%
CC1CCCN(c2cc3c(cc2[N+](=O)[O-])C(=O)N(c2ccccc2)C3=O)C1 (stereo unspecified),0%
Cc1ccc(C(=O)NCCn2cc(SCC(=O)Nc3nnc(C)s3)c3ccccc32)cc1,-3%
CC(C)OC(=O)C(CC(=O)O)N1CCOCC1 (stereo unspecified),-12%
COC1=CC(=O)C(O)=C/C1=C\C=C\c1ccccc1,11µM*
CCOc1ccc(C(=O)NC2CCN(C(=O)N3CCCC3)CC2)cc1,-4%
CCCOc1ccc2cc(-c3ccccn3)c(=O)oc2c1,?
Cn1c(=O)c(=O)n(C)c2cc(S(=O)(=O)N3CCC(Cc4ccccc4)CC3)ccc21,26%
COc1ccc(CCN2C(=O)C(Oc3ccccc3C)C2c2ccc3c(c2)OCO3)cc1 (stereo unspecified),-20%
Cc1ccc(OCCOc2ccc(Cl)cc2Cl)c([N+](=O)[O-])n1,32µM*
COc1ccc2nc3oc(C(=O)NCc4cccs4)cc3cc2c1,?
COc1cccc(C(c2nnnn2Cc2ccc(F)cc2)N2CCC(C(N)=O)CC2)c1OC (stereo unspecified),-5%
CCn1c2ccccc2c2cc(C3N=C(N)Nc4nc5ccccc5n43)ccc21 (stereo unspecified),-12%
Cc1ccc(-n2nc3c(n2)/C(=N/O)CC/C3=N\O)cc1,-19%
O=C(c1ccco1)N1CCC2(CC1)CN(Cc1cc(C(F)(F)F)cc(C(F)(F)F)c1)C2,0%
Cc1ccc(C)c(NC(=S)NNC(=O)c2csc(C)c2C)c1,-6%
Cc1nn(C)cc1NC(=O)c1nn(C)cc1[N+](=O)[O-],-7%
Cc1cccc2cc(C(c3nnnn3Cc3ccccc3)N3CCN(c4ccccc4)CC3)c(=O)[nH]c12 (stereo unspecified),?
COc1ccccc1CNc1ncnc2ccc(-c3c(C)noc3C)cc12,6.3µM*
CN(C)Cc1ccccc1-c1cncnc1NCc1ccccc1,?
CCc1ccc(NC(=O)CS(=O)CC(=O)NCC2OCCc3ccccc32)cc1 (stereo unspecified),-7%
COCC(=O)Nc1nc2n(n1)C(c1ccccc1)CC(c1ccc(OC)cc1)N2 (stereo unspecified),?
COC(=O)c1ccc(Cn2cnc3c(sc4nc(N5CCOCC5)c5c(c43)CCCC5)c2=O)o1,?
O=C(COC(=O)c1c2ccccc2cc2ccccc12)NCC(F)(F)F,?
Cc1cc(C(=O)CSc2nnnn2-c2ccc(Cl)cc2)c(C)n1CC1CCCO1 (stereo unspecified),-4%
O=C1OC(c2ccc(O)c(-c3ccccc3)c2)(c2ccc(O)c(-c3ccccc3)c2)c2c(Cl)c(Cl)c(Cl)c(Cl)c21,-8%

# In a second layout: entries from further up
SMILES: CC(C)OC(=O)C(CC(=O)O)N1CCOCC1 (stereo unspecified)
  HPGD block = -12%

SMILES: O=C(c1ccco1)N1CCC2(CC1)CN(Cc1cc(C(F)(F)F)cc(C(F)(F)F)c1)C2
  HPGD block = 0%

# Remaining list, next part.
SMILES,HPGD block
Cc1ccc(Cn2nc(C)c(NC(=O)CCCn3nc([N+](=O)[O-])c(Cl)c3C)c2C)cc1,-3%
Cn1nc(-c2ccc(C(=O)N3CCN(CCO)CC3)cc2)c2ccccc2c1=O,-24%
CN1CCN(C(c2cccc(Cl)c2)c2ccccc2Cl)CC1 (stereo unspecified),-9%
CCOCc1nc(N)[nH]c(=O)c1Cc1ccc(OC(C)C)cc1,-7%
CCCC(=O)NCCCCNC(=O)CCC,-7%
O=C(O)C1CC=CCC1C(=O)NCCc1cccc(Cl)c1 (stereo unspecified),-7%
Cc1cc(NC(=O)c2cncc(Br)c2)no1,-1%
Cc1ccc(S(=O)(=O)N2CCC(CN3C(=O)c4cccc5cccc(c45)C3=O)CC2)cc1,?
COc1ccc(CC(=O)Nc2ccccc2C(=O)N2CCOCC2)cc1,5%
CCN1CCN(c2ncc(C(=O)Nc3cc(Cl)ccc3OC)c3ccccc23)CC1,-7%
COc1ccc(C(=O)N/N=C/c2cccc3cccnc23)cc1,-15%
CC(C)=C(NC(=O)c1ccccc1)C(=O)NCCCC(=O)O,-5%
C=CCn1c(SCc2nc3ccccc3[nH]2)nnc1-c1ccncc1,-8%
CCOC(=O)c1[nH]cnc1N=Nc1c(O)ccc2ccccc12,-11%
COc1ccc(COCC(O)CN2CC(C)OC(C)C2)cc1OC (stereo unspecified),-4%
Cc1ccc(S(=O)(=O)N(C)Cc2nc(-c3ccccn3)no2)cc1,-12%
CCC(=O)N(C)/C=C1\Sc2ccccc2C1=O,-12%
Cc1ccccc1NC(c1cccc(Cl)c1)c1nnnn1C1CCCCC1 (stereo unspecified),-4%
CC(=O)Oc1ccccc1C(=O)Oc1ccc(/C=N/n2cnnc2)cc1,-2%
C/C(=N\NC(=O)OC(C)(C)C)c1cccc([N+](=O)[O-])c1,-17%
COc1cc(OC)cc(-c2nc3ccccc3c(=O)n2OC(=O)c2ccc(C)c(C)c2)c1,-7%
CCCCOC(=O)C1CCC[C@@H](C)N1 (stereo partly specified),-4%
COc1cc(-c2nc3cnccc3n2C)cc(OC)c1OC,-8%
CC1CCN(C(=O)CCc2ccc(S(=O)(=O)NC(C)(C)C)cc2)CC1,-4%
O=C(NNc1cccc(Cl)c1)c1cccnc1Cl,-6%
Cc1occc1C(=O)Nc1cccnc1,-20%
CSc1nc2c(c(=O)n1Cc1ccccc1)SC(C)C2 (stereo unspecified),-8%
N#CC1=C(S)N(c2ccccc2)C(c2ccc(-c3cccc(Cl)c3)o2)NC1=O (stereo unspecified),32µM*
O=C(OCn1ncc(Br)c(Br)c1=O)c1c(F)cccc1F,28µM*
CCOC(=O)C(NCc1ccccc1OC)(NC(=O)c1ccccc1)C(F)(F)F (stereo unspecified),2%

# Next part.
SMILES,HPGD block
Cc1ccc2c(c1)[C@H]1OCC[C@H]1[C@@H](c1ccncc1)N2,-12%
CC(=O)c1c(N)nc2n(c1=O)CCCCC2,-4%
Cc1cc(C)c(NC(=O)CN(c2ccccc2)S(=O)(=O)N(C)C)c(C)c1,-9%
CC1(C(=O)CSc2nc3ccccc3s2)CCC(=O)O1 (stereo unspecified),-18%
O=c1cc(N2CCc3ccccc3C2)[nH]c(=O)n1Cc1ccc(F)cc1,-11%
O=C(NCc1ccccn1)c1cc(-c2ccc(Cl)cc2)nc2ccccc12,-17%
CC(=O)c1ccc(OCCCC(=O)OCC(=O)N2CCN(c3ccccc3)CC2)cc1,-6%
Cc1nc2ccccc2n1CCc1nc2c3ccccc3nc(SCC#N)n2n1,-7%
Cc1ccc(C(=O)N/C(=C/c2ccco2)C(=O)NCC2CCCO2)cc1 (stereo unspecified),-19%
COc1ccc(-c2[nH]c(-c3cccc(OC)c3)nc2SCC(=O)NCc2ccco2)cc1,-29%
CCOC(=O)c1c(C)n(C)c2ccc(OC)c(NC(=O)CN3CCN(C4CCCCC4)CC3)c12,-9%
Cc1[nH]c(=O)[nH]c(=O)c1S(=O)(=O)N1CCCC(C(=O)NCCc2ccccc2)C1 (stereo unspecified),-14%
Cc1ccc(NC(=O)COC(=O)CCC(=O)c2cccs2)cc1S(=O)(=O)N1CCOCC1,-7%
C[C@@H](C(=O)Nc1ccc2ccccc2c1)[C@H]1C[C@]1(C)[C@H](NS(=O)(=O)c1ccccc1)c1ccccc1,-13%&-9%
O=C1C2C(C(=O)N1CCc1ccccc1)C1C=CC2C12CC2 (stereo unspecified),-2%
C=CCn1c(C)cc(C(=O)CSc2nnc(-c3cccc(S(=O)(=O)N(CC)CC)c3)o2)c1C,-14%
COc1ccc2cc(C(c3nnnn3C(C)(C)C)N3CCc4ccccc4C3)c(=O)[nH]c2c1 (stereo unspecified),-22%
CCCCn1c(SCC(=O)N2c3ccccc3Sc3ccccc32)nc2c1c(=O)n(C)c(=O)n2C,-19%
CCOC(=O)C1(O)Oc2cc(OC)cc(OC)c2C(=O)C1c1ccccc1 (stereo unspecified),-18%
O=C(Cn1ncc2ccccc21)N1CCN(c2cccc(C(F)(F)F)c2)CC1,-9%
CC(C)NC(=O)CSc1nnc(COc2ccccc2Cl)o1,-4%
O=C(CSc1nnc(-c2ccc(F)cc2)c2ccccc12)Nc1ccccc1Cl,-22%
O=C(Cn1nc(Cc2ccncc2)c2ccccc2c1=O)N1CCc2ccccc2C1,-9%
CC(=NCC1CCNCC1)C1=C(O)CC(C)(C)CC1=O,2%
COc1ccc(NC(=O)c2[nH]c(C)c(C(C)=O)c2C)cc1S(=O)(=O)N1CCOCC1,1%
Cc1nc2ccccc2cc1C(=O)N/N=C/c1cccs1,1%
Cc1ccccc1NC(=O)CSc1nc2ccccc2o1,-25%
O=C(c1ccc(Cl)c(S(=O)(=O)N2CCOCC2)c1)N1CCN(Cc2ccccc2)CC1,-3%
CC1(C)CC(=O)C2=C(C1)c1c(ccc3ncccc13)NC2c1cccs1 (stereo unspecified),-17%
Cn1c(-c2ccc(F)cc2)cnc1NCc1ccc(F)cc1,?
Fc1cccc2sc(Nc3nc4cc5c(cc4s3)OCO5)nc12,?
CCOC(=O)c1sc(=S)sc1SCc1cccc(C(F)(F)F)c1,28µM*

# Gathered by group, the compounds so far with a cyano group
SMILES,HPGD block
N#C/C(=C(/O)Cc1cccc2ccccc12)c1nc2ccccc2s1,-8%
C/C(Nc1ccc(F)cc1)=C(/C#N)C(N)=O,-12%
Cc1cc2c3c(c1C)C1(C(=O)N3C(C)(C)CC2C)C(C#N)=C(N)Oc2cc(O)ccc21 (stereo unspecified),-2%
CCCC1=C(C(=O)OCC)C(c2c(C)nn(-c3ccccc3)c2Cl)C(C#N)=C(N)O1 (stereo unspecified),?
N#CC1=C(S)N(c2ccccc2)C(c2ccc(-c3cccc(Cl)c3)o2)NC1=O (stereo unspecified),32µM*
Cc1nc2ccccc2n1CCc1nc2c3ccccc3nc(SCC#N)n2n1,-7%

# The list is partial; the hit share may differ from the screen's.
